# Screens (PubChem)
# PABP polyA inh = PABP poly(A) RNA binding inhibitors, primary screen, biochemical, fluorescence polarization, uHTS | inhibition, % at 35 µM | Polyadenylate-binding protein 1 (Homo sapiens), P11940 | 1% of 290,000 active;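 active = 50% or more with normal probe brightness, or confirmed in later tests; about a fifth of its hits are not listed in these tables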;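 also: calls also rest on retests at 20 µM and on dose response follow-up; controls were probe without protein and protein plus probe with vehicle; some compounds called inactive have numbers as strong as hits; many hits fall short of the cut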
# Target sequence (P11940 whole entry, looked up): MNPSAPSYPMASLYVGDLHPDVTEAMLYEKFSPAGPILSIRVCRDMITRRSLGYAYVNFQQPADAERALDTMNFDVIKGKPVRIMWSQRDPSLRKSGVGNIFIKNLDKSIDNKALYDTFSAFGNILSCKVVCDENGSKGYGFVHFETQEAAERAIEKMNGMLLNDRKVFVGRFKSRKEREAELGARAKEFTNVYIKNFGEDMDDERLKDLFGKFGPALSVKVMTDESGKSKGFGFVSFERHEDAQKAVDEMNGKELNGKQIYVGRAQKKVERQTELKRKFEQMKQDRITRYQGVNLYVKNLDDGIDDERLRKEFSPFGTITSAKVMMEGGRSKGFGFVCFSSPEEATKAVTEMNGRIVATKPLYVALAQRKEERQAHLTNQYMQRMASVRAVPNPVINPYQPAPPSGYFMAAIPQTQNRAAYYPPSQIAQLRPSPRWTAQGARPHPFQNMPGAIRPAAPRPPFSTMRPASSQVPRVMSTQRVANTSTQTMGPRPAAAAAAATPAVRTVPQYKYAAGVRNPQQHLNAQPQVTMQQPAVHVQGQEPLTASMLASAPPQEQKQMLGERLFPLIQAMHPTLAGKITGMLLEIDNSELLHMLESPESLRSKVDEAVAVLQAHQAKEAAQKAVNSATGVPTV
# HIV Env fusion = inhibitors of HIV-1 Env-driven cell-cell fusion, primary screen, HeLa-JRFL effector, CEM21 target cells, luciferase; 1.1% of 360,000 active; AID 651610, 2012; inhibition, % at 12.3 µM;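 active = mean replicate inhibition score of at least 50 and every replicate individually at or above 50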;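 also: 0% = plate neutral controls and 100% = maraviroc near 300 nM; one replicate is shown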
# MT1-MMP act inh = blockers of MT1-MMP proenzyme processing, primary screen, HT1080 RFP-PRO-GFP cells, GFP/RFP fluorescence. Matrix metalloproteinase-14 (Homo sapiens), P50281. GFP/RFP ratio fluorescence, overnight; percent of plate control window, DMSO zero. GFP/RFP ratio change, % at 20 µM. 0.061% of 360,000 active;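 active = GFP/RFP ratio change of at least 30% with cell ATP level not reduced by more than half and red fluorescence within 50% of control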; also: strong numbers were not always called active
#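 Assay system: RFP-PRO-GFP reporter HT1080 cells; read-out basis: GFP/RFP fluorescence ratio; benchmarks: DMSO wells and RFP-L50D-GFP cells; doses: 20 µM single dose, 1% DMSO; schedule: overnight cell settling, then overnight compound exposure, 37 °C, 5% CO2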
# Yeast UUG start = modulators of yeast start codon fidelity, primary screen, whole organism, S. cerevisiae, single point, plate reader. S. cerevisiae UUG-firefly luciferase reporter, luminescence/redox ratio. activity score, % at 18.7 µM. 0.13% of 350,000 active;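 active = replicate mean at a twofold rise or more, about +100% in these data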;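 also: firefly luciferase made from a UUG start codon reports start codon fidelity; reporter light over untreated wells divided by growth signal over untreated wells; some hits fall short of that in this replicate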
# eIF4H FP inh = human eIF4H binding inhibitors, primary screen, translation initiation inhibitor project, biochemical, uHTS, fluorescence polarization. eIF4H fluorescence polarization binding assay. inhibition, % at 35 µM. 0.94% of 290,000 active;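 active = 50% or more with normal probe brightness, or confirmed in later tests; about a fifth of its hits are not listed in these tables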;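 also: calls also rest on retests at 20 µM and on dose response follow-up; 0% = protein and probe with vehicle and 100% = probe without protein; strong numbers were not always called active; many hits fall short of the cut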
# Rce1 inhib = yeast Rce1p protease inhibitors, primary screen, biochemical, fluorescence, cell-free homogeneous | CAAX prenyl protease 2 (Saccharomyces cerevisiae (strain ATCC 204508 / S288c)), Q03530 | yeast membranes, quenched prenylated peptide cleavage fluorescence | calls only | 0.27% of 290,000 active | AID 2563, 2010;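 active = fall in fluorescence gain of 50% or more versus controls, with final raw signal at or below 3038400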;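 also: plate controls were neutral control wells for no effect and wells lacking membranes for full effect; tested at 10 µM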
# CSC inhib = cancer stem cell viability inhibitors, primary screen, luminescence; cancer stem cell-like cells viability; inhibition, % at 7.5 µM; 1.1% of 300,000 active;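 active = mean at 75% or more and at least half the replicates too; tested in HMLE shEcad cells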;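 also: 0% = median of negative and 100% = median of positive control wells; the first replicate is given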
# eIF4H FP inh retest = second read-out of eIF4H FP inh, no call of its own (marks repeat the call); inhibition, %; compound at 20 µM; confirmation average;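 mean of two retest wells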
# PABP polyA inh retest = further read-out of PABP polyA inh, marked with its call; inhibition, %; compound at 20 µM; confirmation repeats;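 mean of two retest wells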
# MT1-MMP act inh RFP = further read-out of MT1-MMP act inh, marked with its call; RFP signal change, %; measured here: RFP expression control read;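 0 = vehicle wells; hits needed this value within 50% of zero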
# Active calls of the source: *; i = inactive; x = not tested or not shown; & = joins results of further samples.
SMILES,PABP polyA inh,HIV Env fusion,MT1-MMP act inh,MT1-MMP act inh RFP,Yeast UUG start,eIF4H FP inh,Rce1 inhib,CSC inhib,others
COc1ccccc1CNC(=O)C(NS(=O)(=O)c1ccc2c(c1)oc(=O)n2C)C(C)C (stereo not drawn),11,31,-2,6,-3,-8,i,3,
CC(=O)OCc1cc(-c2nc3ccccc3[nH]c2=O)nn1-c1ccc(Cl)cc1,4,-16,7,-4,x,-14,i,-1,
CC(C)CC1COC(=O)N1 (stereo not drawn),2,15,0,5,-11,-2,i,-3,
C[C@H](CO)N1C[C@H](C)[C@@H](CN(C)C(=O)Nc2cc(F)ccc2F)Oc2ncc(-c3cccc(F)c3)cc2C1=O,x,-125,-2,1,7&10&12,x,x,x,
CCCS(=O)(=O)N1CCC(C(=O)NCCCN2CCCC2=O)CC1,1,x,9,7,-3,-9,x,-9,
CCOc1ccc(NC(=O)CS(=O)CC(=O)Nc2cccnc2)cc1 (stereo not drawn),0,4,3,6,-9,1,i,x,
O=C(O)CC/C(=N/NC(=O)c1ccc(-c2ccccc2)cc1)c1ccccc1,-1,2,2,5,-14,-9,i,1,
C=CCSc1nc2c(N)ncnc2n1C1OC(CO)C(O)C1O (stereo not drawn),x,5,1,2,-4,x,x,x,
Cc1cc(=O)[nH]c2nnc(-c3ccc(Br)cc3)n12,-6,-21,-11,4,-24,-7,i,3,
COc1ccc(C(=O)C(C)OC(=O)c2nc3nccc(C)n3n2)cc1 (stereo not drawn),x,2,3,0,-8,x,x,-15,
O=C(c1ccc(F)cc1)N1CCN(C(=O)c2cccnc2)CC1,-12,x,3,3,-10,-8,i,-9,
O=C(Cn1cc(C(F)(F)F)ccc1=O)Nc1ccc2c(c1)OCO2,x,24,-2,-1,-10,x,x,x,
Cn1nc(-c2ccc3c(c2)OCCO3)c2ccccc2c1=O,-3,17,3,-7,-5,-1,i,1,
Cc1ccnc(NS(=O)(=O)c2cnc(Cl)c(Br)c2)c1,2,21,3,2,x,9,i,-4,
Cc1ccc(C)c(CC(=O)N2CCCC(c3cc(C(=O)Nc4ccc5c(c4)OCO5)no3)C2)c1 (stereo not drawn),x,6,-4,-9,-5,x,x,x,

# Brought forward from above: three compounds, followed by the next part.
SMILES,PABP polyA inh,HIV Env fusion,MT1-MMP act inh,MT1-MMP act inh RFP,Yeast UUG start,eIF4H FP inh,Rce1 inhib,CSC inhib,others
Cn1nc(-c2ccc3c(c2)OCCO3)c2ccccc2c1=O,-3,17,3,-7,-5,-1,i,1,
Cc1ccnc(NS(=O)(=O)c2cnc(Cl)c(Br)c2)c1,2,21,3,2,x,9,i,-4,
Cc1ccc(C)c(CC(=O)N2CCCC(c3cc(C(=O)Nc4ccc5c(c4)OCO5)no3)C2)c1 (stereo not drawn),x,6,-4,-9,-5,x,x,x,
COc1cc(S(=O)(=O)N2CCN(C)CC2)c(OC)cc1Cl,-6,-16,-4,-6,-1,3,i,-9,
Cc1ccc(OCC(=O)NC2CCCC(C)C2C)c([N+](=O)[O-])n1 (stereo not drawn),x,7,4,1,-7,x,x,-20,
CC(Oc1ccc(Cl)cc1Cl)C(=O)NCc1ccncc1 (stereo not drawn),-3,-8,5,0,-20,7,i,-17,
C(#Cc1ccccc1)CN1CCCCC1,-9,7,2,2,x,-7,i,8,
Cc1ccc(-c2nnnn2-c2ccccc2C(=O)O)cc1,x,-13,2,3,-8,x,i,24,
O=C(COC(=O)c1ccc(Cl)nc1)Nc1ccc2c(c1)OCCO2,x,x,1,2,-9,x,x,-7,
Cc1ccnc(NC(=O)c2cccc(S(=O)(=O)Nc3ccc(C)cc3C)c2)c1,x,0,2,-4,-5,x,x,15,
CC(NCC(O)COc1ccc(S(=O)(=O)N2CCOCC2)cc1)c1ccccc1 (stereo not drawn),4,-3,-4,-1,x,4,i,5,
O=C1C=C(c2ccc3cc[nH]c3c2)C[C@@H](c2ccc3c(c2)OCO3)C1,x,x,2,-2,-9,x,x,49,
CCOC(=O)c1cc(-c2ccccc2)sc1NC(=O)CCN1C(=O)c2ccccc2C1=O,-3,9,0,-4,-20,-9,i,-1,
CCc1ccc(OCC(=O)O/N=C(\N)c2ccccn2)cc1,0,-68,3,-6,-26,-7,i,x,
CC(=O)c1cccc(NC(=O)NCc2ccc3c(c2)OCO3)c1,-8,x,-1,2,-7,6,i,-9,
CC(C)c1csc(CN2CCN(CCc3ccccc3)C(CCO)C2)n1 (stereo not drawn),-7,-4,-2,4,x,6,i,47,
CCN(CC)CCN(Cc1cc2ccc(C)cc2[nH]c1=O)C(=O)NC1CCCCC1,-8,-3,-1,1,x,-7,i,-15,
Cn1ncc([N+](=O)[O-])c1C(=O)Nc1cccc2ccccc12,-4,29,-4,-4,-4,-7,i,1,
Cc1cccc(NC(=O)Cn2c(=O)n3nc(CCn4nc(C)cc4C)nc3c3ccccc32)c1,-7,-45,6,1,-17,0,i,-2,
NC1(CO)COC(c2ccccc2)OC1 (stereo not drawn),x,8,7,6,-5,x,x,x,
CCOC(=O)C(=CNNc1c(C)csc1C(=O)OC)C(=O)OCC,-1,2,-2,0,x,-6,i,3,
O=C1CCc2cc(S(=O)(=O)NC(Cc3ccccc3)C(=O)NC3CCCCC3)ccc2N1 (stereo not drawn),2,25,-5,1,-12,0,i,3,
COc1ccc(NC(=O)Nc2ccc(O)c3ccccc23)cc1,x,9,x,x,x,x,i,25,
Cc1[nH]nc2c1C(c1ccccc1)C1=C(CC(C)(C)CC1=O)N2 (stereo not drawn),-5,-39,5,17,-19,0,i,0,
CCC(=O)N=c1sc2cc(F)cc(F)c2n1C,x,x,2,6,-11,x,i,-9,
O=S(=O)(NCc1ccco1)c1ccc2c(c1)Cc1ccccc1-2,24,-75,6,3,-13,77,i,10,eIF4H FP inh retest=6;PABP polyA inh retest=-9
CC(=O)c1cc(C#N)c(SCC(=O)OC(C)C)nc1C,17,x,1,-1,-10,-4,i,6,
CCOC(=O)C1=C(COC(=O)CCC(=O)c2ccc(C)cc2)NC(=O)NC1C (stereo not drawn),x,10,-2,7,1,x,x,3,
O=C(NCC1CCCN1S(=O)(=O)c1cccs1)c1ccc(Cl)cc1 (stereo not drawn),x,-5,2,-7,x,x,i,-1,
COC(=O)c1ccc(CC2(C)C(=O)Nc3ccc(-c4cccc(C(F)(F)F)c4)cc32)o1 (stereo not drawn),x,65*,3,-4,2,x,x,x,
CN(CC(=O)N1CCN(c2ccccn2)CC1)S(=O)(=O)c1ccc2ccccc2c1,-4,x,x,x,0,4,i,x,
Cc1ccc(CSCC(=O)N(C)CC(=O)Nc2ccc(Cl)c(Cl)c2)cc1,x,x,0,-3,-8,x,i,-2,
CC1CCN(C(=O)CSCc2ccc(Cl)cc2)CC1,-1,x,0,-6,0,-3,i,-21,
CN(C)c1ccc(/C=C/c2ccc3ccccc3n2)cc1,67,x,-57,15,-88,109,i,84*,eIF4H FP inh retest=40;PABP polyA inh retest=50
CN(C1CCCCC1)S(=O)(=O)c1ccc(-c2ccccn2)s1,-3,7,2,1,11,10,i,x,
COC(=O)CNC(=O)CN(c1ccc(OC)cc1OC)S(=O)(=O)c1ccccc1,x,x,-3,2,-10,x,x,-9,
CCN(CC)C(=O)c1cc2cc(Br)ccc2oc1=O,-5,26,8,7,-14,-3,i,0,
Cc1nc(SCCC(C)C)c([N+](=O)[O-])[nH]1,3,-24,4,1,-15,7,i,-4,
O=[N+]([O-])c1ccccc1-c1ccc(/C=N/n2cnnc2)o1,22,x,5,1,-14,7,i,0,
COC(=O)c1ccccc1S(=O)(=O)N1CCC(C(=O)OC(C)C(=O)NC(N)=O)CC1 (stereo not drawn),6,-3,-2,0,x,-2,i,-5,
COC(=O)c1ccccc1S(=O)(=O)N(Cc1cc2ccc(OC)cc2[nH]c1=O)CC1CCCO1 (stereo not drawn),3,x,7,2,11,-6,i,-14,
Cc1ccc(S(=O)(=O)N(C)c2nc3ccccc3[nH]c2=S)cc1,15,-10,-2,1,x,4,i,9,
O=c1ccc2cc(S(=O)(=O)Nc3ccccc3F)ccc2o1,-2,0,-5,-1,-17,-3,i,-3,
NNC(=O)c1ccc(COc2ccc(Br)cc2)o1,11,-9,-1,6,-10,-8,i,x,
CCCn1c(=O)c(Br)cn(-c2ccccc2C)c1=O,-2,0,1,2,-15,83,i,-4,eIF4H FP inh retest=-11;PABP polyA inh retest=-4
CC(=O)N(CN1C(=O)c2ccc([N+](=O)[O-])cc2C1=O)c1ccc(F)cc1,4,x,7,8,1,-12,i,x,
COc1ccc(CNC(=O)CCNC(=O)c2ccc(C(C)(C)C)cc2)cc1OC,x,-28,0,-2,-5,x,x,x,
Cc1ccc(OCCC(=O)OCC(=O)Nc2ccc(F)cc2)cc1,x,22,-2,-3,4,x,i,2,
O=C(c1ccc([N+](=O)[O-])cc1)N(Cc1ccc(Cl)cc1Cl)N1C(=O)CCCC1=O,-1,-57,3,1,-6,-11,i,-5,
Cc1cc(C)c(OCC(=O)Nc2nnn(C)n2)c(Br)c1,-8,-42,-3,1,-1,4,i,-16,
CC1=C(C(=O)OCc2ccccc2)C(c2ccccc2)NC(=O)N1CCCCCC(=O)O (stereo not drawn),x,-31,7,-5,-8,x,i,-3,
COC(=O)C[C@H]1c2ccccc2S(=O)(=O)N1Cc1ccc(OC)cc1,x,10,-1,1,-15,x,i,-5,
CCOc1ccc(S(=O)(=O)N2CCN(C(=O)c3cccnc3)CC2)cc1,-2,2,-1,2,-1,-7,i,9,
CCOC(=O)C1(Cc2cccc(OC)c2)CCN(CC2CC=CCC2)CC1 (stereo not drawn),-7,-9,-1,-2,x,0,i,35,
C/C(CC(=O)Nc1cc(Cl)ccc1Cl)=N\NC(N)=S,-4,-52,1,-1,-15,3,i,-8,

# 6 compounds drawn at random from the list so far, as already listed:
SMILES,PABP polyA inh,HIV Env fusion,MT1-MMP act inh,MT1-MMP act inh RFP,Yeast UUG start,eIF4H FP inh,Rce1 inhib,CSC inhib,others
CCOc1ccc(S(=O)(=O)N2CCN(C(=O)c3cccnc3)CC2)cc1,-2,2,-1,2,-1,-7,i,9,
Cc1cc(C)c(OCC(=O)Nc2nnn(C)n2)c(Br)c1,-8,-42,-3,1,-1,4,i,-16,
CC1=C(C(=O)OCc2ccccc2)C(c2ccccc2)NC(=O)N1CCCCCC(=O)O (stereo not drawn),x,-31,7,-5,-8,x,i,-3,
COC(=O)C[C@H]1c2ccccc2S(=O)(=O)N1Cc1ccc(OC)cc1,x,10,-1,1,-15,x,i,-5,
C/C(CC(=O)Nc1cc(Cl)ccc1Cl)=N\NC(N)=S,-4,-52,1,-1,-15,3,i,-8,
O=C(c1ccc([N+](=O)[O-])cc1)N(Cc1ccc(Cl)cc1Cl)N1C(=O)CCCC1=O,-1,-57,3,1,-6,-11,i,-5,

# Nothing new here: three of the compounds above.
SMILES,PABP polyA inh,HIV Env fusion,MT1-MMP act inh,MT1-MMP act inh RFP,Yeast UUG start,eIF4H FP inh,Rce1 inhib,CSC inhib,others
CCOc1ccc(S(=O)(=O)N2CCN(C(=O)c3cccnc3)CC2)cc1,-2,2,-1,2,-1,-7,i,9,
CCOC(=O)C1(Cc2cccc(OC)c2)CCN(CC2CC=CCC2)CC1 (stereo not drawn),-7,-9,-1,-2,x,0,i,35,
C/C(CC(=O)Nc1cc(Cl)ccc1Cl)=N\NC(N)=S,-4,-52,1,-1,-15,3,i,-8,
